# Env fusion inh: HIV envelope-mediated fusion inhibition; HeLa-JRFL Env/CEM21 cell fusion, luciferase; AID 651610; 1.1% of 360,000 active; inhibition, % at 12.3 µM;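 active means mean replicate inhibition score of at least 50 and every replicate individually at or above 50; inconclusive means only one of the two criteria met; inactive means mean below 50 and not all replicates reaching 50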;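 further: 0% = plate neutral controls and 100% = maraviroc near 300 nM; one replicate is shown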
# MT1-MMP act inh: MT1-MMP (human) activation inhibition; HT1080 RFP-PRO-GFP cells, GFP/RFP ratio fluorescence, overnight; percent of plate control window, DMSO zero; 0.061% of 360,000 active; P50281; GFP/RFP ratio change, % at 20 µM;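 active means GFP/RFP ratio change of at least 30% with cell ATP level not reduced by more than half and red fluorescence within 50% of control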; further: strong numbers were not always called active
#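 Assay system: HT1080 cells carrying an RFP-PRO-GFP reporter | Dosing: Single dose of 20 µM compound, 1% DMSO final | Incubation: Cells overnight before dosing, compound overnight, 37 °C, 5% CO2 | Evaluation: GFP/RFP fluorescence ratio | Control set: DMSO and RFP-L50D-GFP cell wells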
# MT1-MMP act inh RFP: second read-out of MT1-MMP act inh, no call of its own (marks repeat the call); RFP signal change, %; measured here: RFP expression control read;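 0 = vehicle wells; hits needed this value within 50% of zero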
# * marks the source's active call; other numbers are inactive results; ? = inconclusive.
SMILES,Env fusion inh,MT1-MMP act inh,MT1-MMP act inh RFP
CC12C(C(=O)O)C1(c1ccccc1)C2C(=O)O (stereo not given),-18.4,-2.8,-0.4
COc1ccccc1N1CCN(CCc2c[nH]c3cc4c(cc23)OCO4)CC1,8.8,3.1,3.4
CCOC(=O)[C@]12Cc3cc(OC)ccc3[C@H]1N(Cc1ccccc1)C(=O)c1cc(OC)ccc12,5.8,-15.0,-10.8
O=P1(NCCCl)OCCC(OO)N1CCCl (stereo not given),-27.0,10.1,13.7
COc1cc2c(ccc3c4cc(OC)c(OC)cc4c[n+](C)c23)cc1O,5.0,19.6,3.8
C=CCCC1(CC)C(=O)NC(=S)NC1=O,-24.1,-1.2,3.6
Cc1cc(C)c(C)c(C(O)(C(=O)O)c2ccccc2)c1C (stereo not given),4.1,-2.4,4.7
CCOC(=O)[C@]12Cc3cc(OC)ccc3[C@H]1N(C1CCCCC1)C(=O)c1ccccc12,-23.0,-14.5,-33.2
CC1CN1P(=O)(Oc1ccc2ccccc2c1)N1CC1C (stereo not given),-28.5,-3.4,0.3
COc1ccc(C(O)(c2ccccc2)c2ccncc2)cc1 (stereo not given),-1.3,-4.4,-8.3
CC12Nc3ccccc3C(=O)N1Cc1cnnn1-c1ccccc12 (stereo not given),12.8,4.8,4.1
CC1OC(OC2C=C3CCC4C(CCC5(C)C(c6ccc(=O)oc6)CCC45O)C3(C)CC2)C(O)C(OC2OC(CO)C(O)C(O)C2O)C1O (stereo not given),63.2*,-33.3,-31.7
CCOC(=O)[C@]12Cc3c(cc(OC)c(OC)c3OC)[C@H]1N(C1CCCCC1)C(=O)c1ccccc12,4.0,-24.1,-29.7
CC12CCC3c4ccc(OC(=O)N(CCCl)CCCl)cc4CCC3C1CCC2O (stereo not given),18.7,6.1,-5.8
CC1=NNC(=O)C1Br (stereo not given),1.0,-0.2,-4.9
CC(=O)OC1C(=O)OCC23CCC4(C)OC4C2OC2CC(OC(=O)C=CC=CC(=O)OCCC1C)C3(C)C21CO1 (stereo not given),77.3*,-35.5,-40.3
CCOC(=O)[C@]12Cc3cc(C)ccc3[C@H]1N(C)C(=O)c1cc(OC)ccc12,9.0,-8.1,-11.4
O=S(=O)(O)C(=Cc1ccccc1)c1ccccc1 (tested in a mixture with another compound),-8.8,-0.3,3.8
Cc1ccc2nc(-c3ccc(CN4CCC(n5c(=O)[nH]c6ccccc65)CC4)cc3)c(-c3ccccc3)nc2c1,-89.7,6.8,-8.8
O=c1[nH]c2ccccc2n1C1CCN(Cc2ccc(-c3[nH]c4cc5ncnc5cc4nc3-c3ccccc3)cc2)CC1,-39.2,-0.2,-1.9
COc1cc(/C=C2\C[C@H]3[C@@H]4CC=C5C[C@@H](N6CCCC6)CC[C@]5(C)[C@H]4CC[C@]3(C)[C@H]2O)cc(OC)c1OC,29.6,-4.6,-1.9
O=C(NCP(=O)(Oc1ccccc1)Oc1ccccc1)OCc1ccccc1,-7.6,1.0,3.4
COc1cc(C2c3cc4c(cc3CC3COC(=O)C32)OCO4)cc(OC)c1O (stereo not given),-36.6,27.5,8.2
CCC1C2Cc3ccc(O)cc3C1(CC)CCN2C (stereo not given),-28.0,-1.8,1.6
CC(=O)OC1CC2(O)C3CCC4CC(O)CCC4(C)C3CCC2(C)C1C1=CC(=O)OC1 (stereo not given),102.2*,-41.3,-27.1

# Structures shown so far that have a COOH group:
SMILES,Env fusion inh,MT1-MMP act inh,MT1-MMP act inh RFP
CC12C(C(=O)O)C1(c1ccccc1)C2C(=O)O (stereo not given),-18.4,-2.8,-0.4
Cc1cc(C)c(C)c(C(O)(C(=O)O)c2ccccc2)c1C (stereo not given),4.1,-2.4,4.7

# The results go on:
SMILES,Env fusion inh,MT1-MMP act inh,MT1-MMP act inh RFP
COc1ccc2c(c1)C1OCCNC1CC2 (stereo not given),-4.1,4.1,2.8
CCOC(=O)[C@]12Cc3ccccc3[C@H]1N(C)C(=O)c1cc(OC)ccc12,8.0,1.9,-0.6
c1ccc2c[n+](CCCCCCCCCC[n+]3ccc4ccccc4c3)ccc2c1,?,3.9,-9.3
CC1=C(C)CC2(CC1)C(=O)NC(=O)NC2=O,-0.9,2.2,2.5
CCOC(=O)[C@]12Cc3cc(C)ccc3[C@H]1N(Cc1ccccc1)C(=O)c1cc(F)c(F)cc12,6.4,-18.1,-25.7
C[C@@H]1COc2cccc(N3CCN(C)CC3)c2S(=O)(=O)N1,26.7,3.8,4.7
COc1ccc2c(c1)C1(C(=O)O)CC=CCC1(C(=O)O)C2 (stereo not given),3.3,1.9,2.3
CN(CC=CCN(C)P(=S)(N1CC1)N1CC1)P(=S)(N1CC1)N1CC1,19.0,6.6,-1.4
CC(=O)Nc1ccc(C=C2C(=O)NC(=O)NC2=O)cc1,63.2*,-2.8,2.4
N#CC(=C(O)c1ccc(S(=O)(=O)N(CCCl)CCCl)cc1)c1nc2ccccc2[nH]1,-6.9,2.4,2.5
CCC1(Cc2ccccc2)C(=O)NC(=S)N(C)C1=O (stereo not given),1.2,-0.9,4.2
Cc1ccc2c(C)c3ccc4ccccc4c3c[n+]2c1,2.1,5.0,-25.6
CCOC(=O)c1cc2cc(OC)ccc2n1C1CCN(Cc2ccccc2)CC1,13.3,2.3,0.2
CC(C)(O)/C=C/C(=O)C(C)(O)C1C(O)CC2(C)C3CC=C4C(C=C(O)C(=O)C4(C)C)C3(C)C(=O)CC12C (stereo not given),80.9*,-39.5,-31.2
COC(=O)[C@@H]1N=C(c2ccc(OC)cc2)O[C@]12C(=O)N(Cc1ccccc1)c1ccccc12,4.7,5.1,1.6

# One compound at a time, as listed above. Order of screens: Env fusion inh, MT1-MMP act inh, MT1-MMP act inh RFP
# Record of CCOC(=O)[C@]12Cc3c(cc(OC)c(OC)c3OC)[C@H]1N(C1CCCCC1)C(=O)c1ccccc12 : 4.0, -24.1, -29.7
# Record of O=S(=O)(O)C(=Cc1ccccc1)c1ccccc1 (tested in a mixture with another compound) : -8.8, -0.3, 3.8
# Record of CC1=C(C)CC2(CC1)C(=O)NC(=O)NC2=O : -0.9, 2.2, 2.5

# Entries listed so far that contain a halogen, in the order listed:
SMILES,Env fusion inh,MT1-MMP act inh,MT1-MMP act inh RFP
O=P1(NCCCl)OCCC(OO)N1CCCl (stereo not given),-27.0,10.1,13.7
CC12CCC3c4ccc(OC(=O)N(CCCl)CCCl)cc4CCC3C1CCC2O (stereo not given),18.7,6.1,-5.8
CC1=NNC(=O)C1Br (stereo not given),1.0,-0.2,-4.9
CCOC(=O)[C@]12Cc3cc(C)ccc3[C@H]1N(Cc1ccccc1)C(=O)c1cc(F)c(F)cc12,6.4,-18.1,-25.7
N#CC(=C(O)c1ccc(S(=O)(=O)N(CCCl)CCCl)cc1)c1nc2ccccc2[nH]1,-6.9,2.4,2.5

# From PubChem

# An excerpt, so the mix of outcomes need not match the whole.
